# 2A Renilla = lowers the Renilla signal of an FMDV 2A StopGo reporter | AID 1745857 | HEK cells with a luciferase reporter of 2A StopGo recoding | Potency, µM (doses to about 57.5 µM), inactives show at the top dose signal change, negative = less light | actives 0.32% (n = 120,000); active means well fitted falling curve with a large enough effect; inconclusive means small, poorly fitted or top-dose-only effect; inactive means no such curve, though single readings can be large or run the other way; also: nearly all actives have a fitted effect of over 55% in size; overnight with compound
# 2A firefly = FMDV 2A StopGo reporter, firefly signal. Potency, µM (highest dose often 57.5 µM), without a hit: at the top dose signal change, negative = less light. HEK cells with a luciferase reporter of 2A StopGo recoding. AID 1745856. actives 0.23% (n = 120,000); active = well fitted falling curve with a large enough effect; inconclusive = small, poorly fitted or top-dose-only effect; inactive = no such curve, though single readings can be large or run the other way; also: nearly all actives have a fitted effect of over 60% in size; overnight with compound
# Starred values were filed as active, the others as inactive; ? = inconclusive; [ ] = remark or other dose. % is scaled to controls: 0 for no effect and ±100 for the full control effect; potency is read from the fitted curve at half-maximal effect. The list is partial, so the mix of outcomes need not match the whole.
SMILES,2A Renilla,2A firefly
O=C(Nc1ccc(NC(=O)c2cccs2)cc1)c1ccc(Cl)cc1,-13.8%,-10.7%
Cc1ccc(CNC(=O)C2CCN(c3nn4cc(-c5ccc(F)cc5)nc4s3)CC2)cc1,-12.6%,5.4%
Cc1cccc(NC(=O)Cn2c(C)cc3ccccc32)c1C,-6.9%,-3.2%
Cc1ccc(Cc2nc3ccccc3nc2SCC(=O)N2CCc3ccccc32)cc1,-4.1%,-6.1%
CN(CCC#N)C(=O)COC(=O)c1nn(Cc2ccccc2)c(=O)c2ccccc12,91.5%[activator],0.0%
Cc1ccc(Nc2c(-c3ccccc3O)nc3ccc(Br)cn23)cc1,11.8%,24.4%
N=C(N)N1CCc2ccccc2C1,-8.5%[5.77 µM],-11.9%[5.23 µM]
COc1ccc(-c2cc(C(=O)N3CCN(c4ccc(F)cc4)CC3)no2)cc1OC,-2.3%,-8.4%
CCn1c(SCc2nc(-c3cccs3)oc2C)nnc1C1CC1,13.0%,44.6%[activator]
COc1ccc(NC(=O)Cn2nnc(C(=O)Nc3ccc(C)c(F)c3)c2N)cc1Cl,-1.6%,9.8%
CC(=O)Nc1ccc(C(=O)CSc2ncnc3sccc23)cc1,-17.3%,0.0%
CCc1sc(C(=O)N2CC=C(c3ccccc3)CC2)cc1C,0.0%,30.2%[activator]
COc1cccc(NC(=O)C(Cc2ccccc2)N2Cc3ccccc3C2=O)c1 (stereo not given),-0.6%,-24.6%
Cc1ccc(CN(C)C(=O)Cn2cnc3c2c(=O)n(C)c(=O)n3C)c(C)c1,-2.8%,9.5%
O=C(NCCCN1CCCCCC1)c1ccc2c(c1)sc1nc(-c3ccccc3)cn12,-6.8%,86.5%[activator]
CCc1c(C)sc(NC(=O)C(F)(F)F)c1C#N,?,-1.7%
c1ccc(N2CCN(c3ncnc4c3nc3n4CCCC3)CC2)cc1,?,?
Cc1cn2c(=O)cc(CSc3ccccc3NC(=O)COc3ccccc3Cl)nc2s1,-10.4%,1.0%
COc1ccc(-c2c(C)c3cc(OS(=O)(=O)c4ccc(C)cc4)ccc3oc2=O)cc1,?,-30.8%
O=C(Cn1cc(C(F)(F)F)ccc1=O)c1ccc(C2CCCCC2)cc1,-28.9%,12.1%
Cc1cccc(C)c1NC(=O)CN(C)CC(=O)NC(=O)NCC(F)(F)F,0.2%,1.6%
Cc1ccc(CN(CCN(C)C)C(=O)c2ccc(C#N)cc2)o1,-2.7%,-13.8%
Cc1cccc(C)c1NC(=O)CSc1nnc(Cc2ccccc2)n1-n1cccc1,16.9%,-2.9%
N#Cc1ccccc1-c1ccc(CSc2nnnn2-c2cccc(F)c2)cc1,13.4%,17.7%
Cc1cccc(-n2c(/C=C\c3cccc(Br)c3)nc3ccccc3c2=O)c1,?,?
# New compounds follow:
SMILES,2A Renilla,2A firefly
CCCN(C(=O)CCc1nc(-c2ccccc2F)no1)c1ccc(CC)cc1,3.9%,-12.7%
Cc1ccc(CNC(=O)c2cc(=O)c3ccccc3o2)cc1,0.4%,21.8%
COc1ccc(NC(=O)Cn2cnc3sc(C)c(S(=O)(=O)N4CCN(C)CC4)c3c2=O)cc1Cl,-6.6%,-18.4%
Cc1nn(CC(=O)Nc2ccc(N3CCCC3)cc2)c(=O)c2ccccc12,-5.3%,23.0%
Cc1ccnc(NC(=O)c2cc(-c3ccncc3)nc3ccccc23)c1,19.0%,0.0%
COCCN1C(=O)c2n[nH]c(-c3ccco3)c2C1c1ccccc1OC (stereo not given),39.3%[activator],53.1%[activator]
CCCCNC(=O)c1cc2cc(C)ccc2[nH]1,?,101.9%[activator]
CCOc1ccc(/C=C2/NC(=O)NC2=O)cc1I,14.5%,27.9%
COc1cc(NC(=O)c2cc3cc4ccc(C)cc4nc3o2)cc(OC)c1OC,?,?
O=C(CCN1C(=O)NC2(CCCCC2)C1=O)Nc1cnc2ccccc2c1,8.1%,117.3%[activator]
O=C(c1cc(-c2cccs2)nc2ccccc12)N1CCOCC1,11.7%,8.7%
CN(C)CCNC(=O)C1CCN(c2nc3ccccc3[nH]2)CC1,33.9%[activator],29.3%
Cc1ccc(-c2nc(CSc3nnc(C)n4c3cc3occc34)c(C)o2)cc1,-5.7%,-13.2%
CN(Cc1ccc(C(F)(F)F)cc1)C(=O)c1cc(C2CC2)nc2ccccc12,11.7%,5.9%
CCCCc1cc(=O)oc2cc(OC(C)C(=O)NCc3cccnc3)c(Cl)cc12 (stereo not given),-5.0%,3.9%
Cn1c(COc2ccc(C(C)(C)C)cc2)nnc1SCc1ccc(F)cc1,22.1%,50.0%[activator]
Cc1ccccc1OCCOC(=O)c1n[nH]c(=O)c2ccccc12,-19.1%,-13.0%
Cc1cc(C)cc(C(=O)N(CC#N)C2CC2)c1,20.5%,7.6%
Cc1ccc(CN2CCC(CNC(=O)Nc3cccc(C)c3C)C2)cc1 (stereo not given),0.3%,-20.3%
CCCCCN(CCCCC)C(=S)Nc1ccc(Br)cc1Cl,33.9%[activator],-2.2%
CCC(C)(C)c1ccc(O)c(-c2csc(N)n2)c1,31.1%[activator],215.8%[activator]
CCN(CC)C(=O)CN(C)C(=O)c1cc2cc(F)ccc2[nH]1,-12.7%,47.1%[activator]
CC(C)C(=O)Nc1ccc2[nH]cc(C(C(=O)O)N3CCC(Cc4ccccc4)CC3)c2c1 (stereo not given),-3.7%,14.1%
Cc1ccc(C(=O)NC(C)c2ccc3c(c2)NC(=O)CO3)s1 (stereo not given),2.3%,20.7%
COc1ccc(C)cc1-n1ccnc1SCC(=O)Nc1nccs1,1.5%,17.7%

# Part of the list above, as labelled records:
CCCN(C(=O)CCc1nc(-c2ccccc2F)no1)c1ccc(CC)cc1
  2A Renilla: 3.9% | 2A firefly: -12.7%
COCCN1C(=O)c2n[nH]c(-c3ccco3)c2C1c1ccccc1OC (stereo not given)
  2A Renilla: 39.3%[activator] | 2A firefly: 53.1%[activator]
CCCCNC(=O)c1cc2cc(C)ccc2[nH]1
  2A Renilla: ? | 2A firefly: 101.9%[activator]
O=C(c1cc(-c2cccs2)nc2ccccc12)N1CCOCC1
  2A Renilla: 11.7% | 2A firefly: 8.7%

# Some of the entries so far, with bars between the fields.
Structure | 2A Renilla | 2A firefly
Cc1ccnc(NC(=O)c2cc(-c3ccncc3)nc3ccccc23)c1 | 19.0% | 0.0%
Cc1ccc(CNC(=O)c2cc(=O)c3ccccc3o2)cc1 | 0.4% | 21.8%
CCCCNC(=O)c1cc2cc(C)ccc2[nH]1 | ? | 101.9%[activator]
CC(C)C(=O)Nc1ccc2[nH]cc(C(C(=O)O)N3CCC(Cc4ccccc4)CC3)c2c1 (stereo not given) | -3.7% | 14.1%
COc1cc(NC(=O)c2cc3cc4ccc(C)cc4nc3o2)cc(OC)c1OC | ? | ?
Cc1ccc(C(=O)NC(C)c2ccc3c(c2)NC(=O)CO3)s1 (stereo not given) | 2.3% | 20.7%

# Among those listed so far, five have a cyano group:
SMILES,2A Renilla,2A firefly
CN(CCC#N)C(=O)COC(=O)c1nn(Cc2ccccc2)c(=O)c2ccccc12,91.5%[activator],0.0%
CCc1c(C)sc(NC(=O)C(F)(F)F)c1C#N,?,-1.7%
Cc1ccc(CN(CCN(C)C)C(=O)c2ccc(C#N)cc2)o1,-2.7%,-13.8%
N#Cc1ccccc1-c1ccc(CSc2nnnn2-c2cccc(F)c2)cc1,13.4%,17.7%
Cc1cc(C)cc(C(=O)N(CC#N)C2CC2)c1,20.5%,7.6%

# (continued)
SMILES,2A Renilla,2A firefly
CC(Sc1nnc(N2CCCCC2)n1-c1ccccc1)c1nc(-c2ccco2)no1 (stereo not given),27.0%,-8.2%
Cc1ccc(Cl)cc1-n1c(=O)cc(N2CCN(c3ccc(F)cc3)CC2)[nH]c1=O,1.0%,-22.7%
O=C(C1CCC1)N1CCc2cc(S(=O)(=O)NCCc3ccccc3)ccc21,322.7%[activator],30.8%[activator]
Cc1ccc2occ(CC(=O)N(Cc3ccc(Cl)cc3)Cc3ccco3)c2c1,-6.2%,79.4%[activator]
Cc1cc(OC(=O)c2ccccc2F)cc(OC(=O)c2ccccc2F)c1,6.2%,9.9%
O=C(Cn1ncc2ccccc2c1=O)Nc1ncc(Cc2cccc(C(F)(F)F)c2)s1,-7.1%,0.3%
COc1ccc(CNC(=O)c2ccccc2OC(F)F)cc1C(=O)O,-1.7%,7.1%
CCN(CC)C(=O)Oc1ccc2oc(=O)c(-c3ccccc3)c(C)c2c1,-17.5%,-7.8%
CCc1nnc(SCc2cccc(F)c2)c2cc3sc(C)cc3n12,-7.6%,4.3%
CCCNCc1ccc(-c2ccccc2)o1,-1.3%,2.3%
CCCCOc1ccccc1Cn1c(=O)sc2ccccc21,52.6%[activator],27.6%
COC(=O)C1CCN(Cc2cc(=O)oc3cc(C)c(C)cc23)CC1,-5.4%,22.6%
Cc1ccc(NC(=O)CCn2c(=O)c3cccn3c3ccccc32)cc1C,3.8%,-4.2%
O=C(NNC(=O)C1CCCC1)c1ccc(Br)cc1,0.0%,0.0%
Cc1cc(=O)oc2cc(OS(=O)(=O)c3cccc(Cl)c3)ccc12,40.4%[activator],75.2%[activator]
Cc1ccc(CN2CCc3nc(N4CCN(c5ccccc5F)CC4)ncc3C2)cc1C,-14.5%,-9.3%
Cc1cccc(-c2nc3c4ccccc4n(CC(=O)Nc4cc(F)ccc4F)c(=O)n3n2)c1,-17.9%,-18.1%
CCOc1cc(/C=C2/NC(=O)NC2=O)ccc1OCc1cccc(F)c1,11.8%,-1.0%
O=S(=O)(NCC1(c2ccccc2)CCC1)c1cccc(F)c1,131.3%[activator],13.3%
CC(=O)NC12CC3CC(C1)CC(C(=O)N1CCC(CCc4ccc(C)cc4)CC1)(C3)C2,?,-4.6%
O=C(COC(=O)c1cc(-c2ccc(F)cc2)nc2ccccc12)NC1CC1,-1.2%,23.3%
CSc1nsc(SCC(=O)NCc2ccccc2)n1,1.4%,37.7%[activator]
O=C(CCc1ncc(-c2ccc(F)cc2F)o1)Nc1ccccc1O,-14.7%,41.9%[activator]
O=C(Nc1cc2c(cc1C(=O)c1ccccc1Cl)OCCO2)c1ccccc1,-15.9%,-18.8%
Cc1cc(C(=O)C(=O)Nc2nnc(C(C)C)s2)c(C)n1-c1ccccc1,?,?
# The listing continues:
SMILES,2A Renilla,2A firefly
COc1ccc(-c2csc(Nc3ccc(C)cn3)n2)cc1OC,?,-7.8%
Cc1ccc2c(c1)cc1c(=O)n(CC(=O)NCc3ccco3)nc(C)n12,-12.6%,-8.5%
COc1ccc(-n2ncc3c(NCCCOC(C)C)ncnc32)cc1,2.4%,30.9%[activator]
Cc1cccc(C(=O)NCc2cn3cccc(C)c3n2)c1,-3.6%,9.3%
Cc1ccc(S(=O)(=O)N2CCC(C(=O)Nc3nc4c(s3)CC(c3ccccc3)CC4)CC2)cc1 (stereo not given),13.9%,9.9%
CCOc1ccc(CNC(=O)c2ncoc2-c2ccc(C)s2)cc1,-2.3%,17.8%
Cc1nn(Cc2cc(C(=O)O)c3ccccc3n2)c(C)c1Br,-1.1%,-8.5%
Cc1cc(C)n(-c2nc3ccccc3nc2N2CCN(C(=O)c3ccc(Cl)cc3)CC2)n1,28.0%,4.9%
O=C(CSc1nc2ccsc2c(=O)[nH]1)Nc1ccccc1,47.9%[activator],161.5%[activator]
O=C(CCc1ncc(-c2ccccc2)o1)NCc1ccc(F)cc1,-8.1%,5.5%
CCOC(=O)C1CCN(C(c2ccccc2)c2sc3nc(-c4ccco4)nn3c2O)CC1 (stereo not given),93.4%[activator],65.3%[activator]
CCOc1ccc(CCNc2ncnc3onc(-c4ccc(Cl)cc4)c23)cc1OCC,2.4%,-4.1%
COc1cccc(C2CC(=O)Nc3ccsc32)c1OCc1ccc(Cl)cc1 (stereo not given),?,?
CCCn1c(C)cc(C(=O)Cn2cnc3c2c(=O)n(C)c(=O)n3C)c1C,16.5%,0.0%
CCCCNC(=O)CCCn1c(=O)c2ccccc2n(Cc2cccc(Cl)c2)c1=O,-4.2%,-4.6%
Cc1csc(Sc2ccc(Cl)cc2)n1,-0.6%,3.4%
CC(C)(C)c1cc2c(c(C(C)(C)C)c1)Oc1cc(C#N)c(C#N)cc1O2,3.1%,1.0%
Cc1cccc(NC(=O)Cn2c(=O)n(CCc3ccccc3)c(=O)c3ccccc32)c1,4.1%,7.5%
